High-throughput results (PubChem)
D2 ag: activates the human D2 dopamine receptor; P14416; DiscoveRx PathHunter D2 beta-arrestin, luminescence, 90 min; 100% = 57 uM dopamine signal; activation, % (no concentration beside the values); hit rate 0.084% among 360,000; AID 624465; in the data active = activation above about 40%; inconclusive = about 15% to 40%; inactive = below about 15%; note: compound concentration not given in the record; the text of the record calls up to 30% inactive
Target sequence (P14416 whole entry, looked up): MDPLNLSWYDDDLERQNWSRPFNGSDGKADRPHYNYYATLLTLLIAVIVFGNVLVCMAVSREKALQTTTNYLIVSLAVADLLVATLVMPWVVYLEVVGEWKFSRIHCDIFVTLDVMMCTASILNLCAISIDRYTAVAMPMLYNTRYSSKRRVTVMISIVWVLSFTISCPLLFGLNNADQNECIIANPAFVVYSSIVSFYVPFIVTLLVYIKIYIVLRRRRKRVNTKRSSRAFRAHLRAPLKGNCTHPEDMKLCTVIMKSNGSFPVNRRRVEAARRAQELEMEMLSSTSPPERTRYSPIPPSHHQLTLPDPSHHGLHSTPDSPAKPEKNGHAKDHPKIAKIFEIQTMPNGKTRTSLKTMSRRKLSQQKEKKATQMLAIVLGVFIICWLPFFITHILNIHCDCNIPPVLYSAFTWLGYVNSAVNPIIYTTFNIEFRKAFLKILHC
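Agonist mode: compounds alone added to overnight-plated D2 PathHunter cells for 90 min at 37 C, with 57 uM final dopamine (EC100) defining full response. Beta-arrestin recruitment detected by chemiluminescent reagent, read after 1 h at ambient temperature.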
gsp agonist: activates gsp, the McCune-Albright syndrome mutation; gsp mutant cells, cAMP HTRF, 30 min; control for the full effect not named in the record; Potency, µM (top dose mostly 76.9 µM), for inactives: top-dose activation (cAMP increase), usual class: activators; hit rate 0.13% among 340,000; active = well fitted activation curve with a large enough effect; inconclusive = small, poorly fitted or top-dose-only effect, or another doubt; inactive = no such curve, though single readings can be large or run the other way; cell line not stated here;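 note: phosphodiesterase inhibitor Ro 20-1724 added with compounds to block cAMP breakdown; potency is the fitted concentration of half-maximal effect; nearly all actives have a fitted effect of over 60% in size; about a fifth of the inactives were tested at one dose only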
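Cells stably selected in G418 were plated at 2000/well, grown 16-24 hr, then given compounds in DMSO with the PDE inhibitor […] (300 uM solution added) for 30 min at 37C; cAMP was read by HTRF.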
Menin-MLL FL inh: menin-MLL binding inhibition, fluorescein peptide | 290,000 tested, under 10 active | FP activity change, % at 61.4 µM | Fluorescence polarization, fluorescein-MLL peptide displacement from menin; inconclusive = falling polarisation curve, or a change in total fluorescence; inactive = total fluorescence flat and polarisation flat or rising; no compound was filed as active; the % refers to the polarisation; negative = inhibition;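 note: % of control where 0% means no effect; inhibitors lower the polarisation; unlabelled MLL peptide was the positive control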
PINK1 expr mod: PINK1 expression modulation. hit rate 0.2% among 410,000. AID 624263. PINK1 immunofluorescence, high-content cytometry, 24 h. Potency, µM (series often up to 76.6 µM), without a hit: top-dose activation (PINK1 increase), usual class: activators; active = well fitted activation curve with a large enough effect; inconclusive = small, poorly fitted or top-dose-only effect; inactive = flat fitted curve, though single readings scatter; cell line not stated here;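 note: potency is the fitted concentration of half-maximal effect; % of control where 0% means no effect; nearly all actives have a fitted effect of over 65% in size; a mitochondrial uncoupler was the plate control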
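A stable cell line was treated with compounds at 5 concentrations for 24 hours, with CCCP as control. PINK1 levels and mitochondrial localization were measured by immunofluorescence with mitochondrial, cell and nuclear markers after fixation, read by laser-scanning cytometry.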
Sfp PPTase inh: Sfp phosphopantetheinyl transferase inhibition. Q9F4F7. Biochemical Sfp PPTase activity, qHTS. Potency, µM, for inactives: max response, negative = inhibition, actives largely listed as inhibitors. hit rate 3.5% among 310,000. AID 1490; active = well fitted inhibition curve with a large enough effect; inconclusive = small, poorly fitted or top-dose-only effect, or another doubt; inactive = no such curve, though single readings can be large or run the other way;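 note: the enzyme is Sfp with the accession as filed and its product quenches rhodamine fluorescence; potency is the fitted concentration of half-maximal effect; 0% = enzyme reaction without inhibitor and -100% = no enzyme wells; top concentration of the series not given in the record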
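Buffer: 50 mM Hepes-Na pH 7.6, 10 mM MgCl2, 0.01% Nonidet P-40, 0.01% BSA. Enzyme 15 nM, pre-exposed to compound 15 min; substrates then added and fluorescence change tracked over 30 min.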
gsp antag: gsp mutant antagonism; hit rate 0.4% among 340,000; Potency, µM (series often up to 76.9 µM), for the others: at the top dose activity change, negative = inhibition, actives largely listed as inhibitors; gsp-mutant cells, cAMP HTRF, 30 min; control for the full effect not named in the record; active = falling curve of any shape with a large fitted effect; inconclusive = falling curve, mostly with a smaller effect; inactive = flat or rising curve; cell line not stated here;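 note: intracellular cAMP measured with PDE inhibitor Ro 20-1724 present during compound exposure; potency is the fitted concentration of half-maximal effect; % is set by controls: 0 for no effect and ±100 for the full control effect; nearly all actives have a fitted effect of over 65% in size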
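HTRF cAMP measurement after 30 min RT detection following 30 min, 37C compound treatment alongside […] (added as 300 uM solution) in G418-selected cells seeded at 2000/well and grown 16–24 h.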
ClpP mod: qHTS Assay for Activators of ClpP. hit rate 1.9% among 340,000. purified B. subtilis ClpP, FRET peptide cleavage, 20 min. Potency, µM (top dose mostly 57.5 µM), for the others: top-dose activity change, negative = active; active = well fitted falling curve with a large enough effect; inconclusive = small, poorly fitted or top-dose-only effect; inactive = no such curve, though single readings can be large or run the other way; note: potency is the fitted concentration of half-maximal effect; the source files actives as falling curves though it sought activators and does not explain the sign; nearly all actives have a fitted effect of over 65% in size; many hits overshoot -100%
Target sequence (P80244 whole entry, looked up): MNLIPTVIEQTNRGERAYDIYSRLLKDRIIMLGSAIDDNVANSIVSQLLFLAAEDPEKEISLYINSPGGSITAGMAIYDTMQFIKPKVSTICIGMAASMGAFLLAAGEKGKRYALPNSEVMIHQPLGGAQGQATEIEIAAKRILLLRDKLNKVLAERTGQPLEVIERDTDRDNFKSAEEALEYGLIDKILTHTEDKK
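Buffer: 100 mM Tris/HCl pH8, 100 mM KCl, 0.05% low protease BSA, 2.5% glycerol, 0.01% Tween-20. ClpP 10 microg/mL final; 20 min RT; delta FRET normalized to ADEP and DMSO controls.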
An asterisk follows results filed as active; u = inconclusive; x = not tested or not shown; & = joins results of further samples; [ ] = dose if it differs, or a comment.

SMILES	D2 ag	gsp agonist	Menin-MLL FL inh	PINK1 expr mod	Sfp PPTase inh	gsp antag	ClpP mod
CCC(C)NC(=O)C1c2ccccc2C(=O)N1Cc1ccc(OC)cc1OC (stereo unspecified)	-5.1	-17%	5.3	4.4%	15%	14%	-0.1%
COc1ccc2[nH]c(=O)c(CN(Cc3cccnc3)Cc3nnnn3CC3CCCO3)cc2c1 (stereo unspecified)	-0.5	u	-0.3	0.0%	79µM*	5%	3.2%
NNC(=O)c1ccc(COCC(F)(F)C(F)F)cc1	5.1	u	3.1	0.1%	-7%	2%	x
C[C@@H]1CN([C@@H](C)CO)C(=O)CCCn2nncc2CO[C@@H]1CN(C)C(=O)C1CCCCC1	-6.5	-40%[inhibitor]	x	-0.3%	x	x	-1.4%
OC(c1ccccc1)c1ccccc1CN1CCCNC1=S (stereo unspecified)	-6.4	-30%[inhibitor]	x	0.5%	x	x	0.4%
CCCCc1cc(=O)oc2cc(OCC(=O)N3C[C@H]4C[C@@H](C3)c3cccc(=O)n3C4)ccc12	-4.1	x	-3.8	-0.7%	9%	-8%	5.4%
COc1nc(Nc2ccc(C(C)=O)cc2)nc(OC)n1	3.1	28%	-2.6	x	4%	2%	-12%
CCN(CC)S(=O)(=O)c1cccc(C(=O)N/N=C/c2c(C)nn(-c3ccccc3)c2Cl)c1	-5.5	2%[15.4 µM]	2.5	2.9%	11%	0%	-2.2%
CC(Sc1cccc[n+]1[O-])C(=O)Nc1cccc([N+](=O)[O-])c1 (stereo unspecified)	-1.2	-9%[15.4 µM]	0.1	-0.3%	-13%	x	x
N#Cc1cccc(NC(=O)CSc2n[nH]c(=O)[nH]c2=O)c1	-7.9	-9%	-5.0	1.1%	2%	6%	-0.1%
CC(C)(C)n1nc2c(c1NC(=O)c1cccc(Cl)c1)CS(=O)(=O)C2	-4.3	u	-13	0.4%	13%	6%	-2.2%
COc1cc(CCN2C(=O)c3cccc4cccc(c34)C2=O)c(S(=O)(=O)N2CCCCCC2)cc1OC	-1.9	-10%	4.1	1.2%	-8%	-1%	u
O=C(Cn1cnc2c(NCc3ccccc3)ncnc21)NCc1ccccc1	-1.7	x	x	11%	x	14%	-1.6%
CC1S/C(=N/N=C/c2cccs2)NC1=O (stereo unspecified)	-4.7	12%	6.1	1.7%	13%	4%	-3.7%
CCN(C(=O)CSc1nnc(NCc2ccccc2)s1)C1CCS(=O)(=O)C1 (stereo unspecified)	-2.5	4%	1.9	0.5%	10%	-10%	-0.1%
CCCc1cc(=O)[nH]c(-n2[nH]c3c(c2=O)CCCC3)n1	-4.2	1%[15.4 µM]	u	-0.9%	u	-6%	-9.7%
CCOc1ncccc1C(=O)OCC(=O)Nc1cc(S(=O)(=O)N2CCOCC2)ccc1Cl	1.1	-5%	7.1	3.0%	-5%	-2%	x
CCCC(=O)Nc1sc2c(c1C#N)CC(C)(C)NC2(C)C	-0.2	9%	2.3	0.6%	16%	9%	-3.0%
COc1cccc(C(=O)COc2cccc(NC(=O)c3cccc([N+](=O)[O-])c3)c2)c1	3.9	9%	-0.6	0.2%	14%	-14%	1.0%
Cc1nn(C(C)(C)C)c(OC(=O)c2ccc(Br)o2)c1Sc1ccccc1	-0.8	-14%	0.5	5.3%[38.3 µM]	-7%	0%	-0.9%
CSCCC(NC(=O)c1ccco1)C(=O)Nc1ccc(C)c(S(=O)(=O)N2CCOCC2)c1 (stereo unspecified)	-6.0	-1%	x	2.5%	x	1%	-2.5%
COc1ccccc1CC(=O)Nc1ccon1	-4.8	u	-0.6	-0.8%	8%	5%	-1.4%
COc1ccc(CN(CC2CCCO2)C(=O)c2cc3sccc3n2C)c(OC)c1 (stereo unspecified)	-6.2	21%[15.4 µM]	-1.0	2.1%	5%	-4%	x
COc1cccc(C2/C(=C(/O)c3ccc4c(c3)CC(C)O4)C(=O)C(=O)N2CCCn2ccnc2)c1 (stereo unspecified)	-1.5	13µM*	-2.6	-0.7%	8%	-7%	x
Cc1cccc(OCCN2C(=O)C(=O)c3cc(C)ccc32)c1	-12	4%[15.4 µM]	-1.7	17%	-3%	35%	x

In the list so far, these have a nitro group on carbon.
SMILES	D2 ag	gsp agonist	Menin-MLL FL inh	PINK1 expr mod	Sfp PPTase inh	gsp antag	ClpP mod
CC(Sc1cccc[n+]1[O-])C(=O)Nc1cccc([N+](=O)[O-])c1 (stereo unspecified)	-1.2	-9%[15.4 µM]	0.1	-0.3%	-13%	x	x
COc1cccc(C(=O)COc2cccc(NC(=O)c3cccc([N+](=O)[O-])c3)c2)c1	3.9	9%	-0.6	0.2%	14%	-14%	1.0%

The results go on:
SMILES	D2 ag	gsp agonist	Menin-MLL FL inh	PINK1 expr mod	Sfp PPTase inh	gsp antag	ClpP mod
COc1ccc(-c2nc3c4ccccc4ccn3c2Cc2ccccc2C(F)(F)F)cc1OC	-6.7	x	x	0.1%	x	x	5.4%
O=C(OCC(=O)N1CCCc2ccccc21)c1cccc(S(=O)(=O)N2CCc3ccccc32)c1	0.6	-8%	2.7	-0.4%	2%	2%	3.4%
Cc1ccc(S(=O)(=O)NCC(=O)N(CC(=O)NCc2ccc(F)cc2)CC2CCCO2)cc1 (stereo unspecified)	-1.6	-5%[15.4 µM]	3.1	-0.5%	20%	-13%	x
Cc1cc(C)nc(Nc2ccc(N3CCCC3)cc2)n1	1.8	18%	6.7	3.3%	79µM*	-20%	2.9%
Clc1ccc(C2=Nn3c(nnc3-c3cccs3)SC2)cc1	-3.2	13%	3.2	6.9%	15%	10%	0.8%
CN(C)C=NC(=O)c1[nH]c2ccc(Cl)cc2c1-c1ccccc1	-1.7	14%	5.8	-0.5%	-19%	u	3.8%
Cc1ccccc1NS(=O)(=O)c1cc(C(=O)N2CCc3ccccc3C2)ccc1C	1.3	-31%[inhibitor]	-3.5	0.8%	15%	-42%	1.2%
COc1ccccc1C1OC2=C(Nc3ccc([N+](=O)[O-])cc3N2)C1=O (stereo unspecified)	u	u	-2.0	0.7%	11%	-9%	-0.5%
Cc1ccc(N(CC(=O)NCc2ccccc2)C(=O)c2csnn2)cc1	-2.2	-3%[15.4 µM]	2.6	0.8%	-7%	2%	x
Cc1ccc(NC(=O)CCC(=O)c2cccs2)nc1	-6.7	-3%[15.4 µM]	x	0.5%	x	-9%	-4.9%
O=C1/C(=C\Nc2ccc(OC(F)(F)F)cc2)CCN1c1ncccn1	-2.7	17%	3.2	2.7%	-4%	9%	-1.6%
Cc1cc(/C=N/n2cnnc2)c(C)n1-c1ccc2ncccc2c1	2.1	2%[15.4 µM]	x	-0.9%	x	-12%	x
O=C(/C=C/c1ccc(O)cc1)c1ccc(O)cc1O	-6.1	x	u	3.5%	-10%&22%&-10%&12%	0%	1.2%
CCSc1nnc2n(-c3ccc(OC)cc3)c(=O)c3c4c(sc3n12)CCCC4	-3.9	-15%	0.7	-1.1%	9%	0%	-1.0%
O=C(O)c1cccc(CN2C(=O)CSC2=O)c1	-2.1	-38%[inhibitor]	-0.4	0.1%	9%	5%	0.0%
O=C(Nc1scc(-c2ccccc2)c1C(=O)O)c1ccccc1F	0.3	2%	-3.7	1.1%	11%	-25%	x
O=C(CNC(=O)c1ccco1)N=Nc1c(O)[nH]c2ccc(Br)cc12	-9.4	0%	-3.2	1.7%	-2%	-1%	1.3%
CCOC(=O)C1=NN(C(=O)Nc2cccc(C(F)(F)F)c2)C2C(=O)N(c3cccc(C(F)(F)F)c3)C(=O)C12 (stereo unspecified)	-2.7	-2%	-2.2	-0.4%	17%	1%	-2.8%
CC(C)CN(C(=O)c1ccc(=O)n(C)n1)c1nc2ccccc2s1	-2.0	-31%[inhibitor]	-0.1	-2.8%	-16%	-10%	-2.6%
COc1ccc(-c2cn(-c3ccc(C)cc3)c(=O)n2CC(=O)Nc2ccc(OC)c(OC)c2)cc1	-2.5	-6%[15.4 µM]	2.8	1.0%	u	-8%	-9.7%
COc1ccc([C@H]2C=C3CN(C(=O)OC(C)(C)C)S(=O)(=O)[C@H]3C[C@H]2OC(=O)c2cccs2)cc1	-2.4	x	2.0	9.0%	9%	-13%	-3.7%
CCOC(=O)N1CCc2c(sc3c2C(=O)NC(c2ccccc2)N3)C1 (stereo unspecified)	-1.3	-46%[inhibitor]	u	5.6%	56µM*	0%	28µM*
CC(C)CC(=O)Nc1nnc(SCC(=O)Nc2ccc(F)cc2)s1	-1.0	20%	-2.6	6.8%	6%	-7%	x
CCCCCOC(=O)C1[C@H]2C(=O)N(CCCOC)C[C@]23C=C[C@H]1O3 (stereo partly specified)	-3.4	21%	0.0	-1.7%	1%	4%	-0.1%
COCCNc1nc(Oc2ccc(Cl)c(Cl)c2)c2sccc2n1	-3.9	x	x	1.3%	x	x	-28%
Cc1ccc(Cn2c(C(C)Nc3nc(-c4ccc(C)cc4)cs3)nc3cc(Cl)c(Cl)cc32)cc1 (stereo unspecified)	-4.8	u	-0.8	14%	-14%	9%	-1.2%
Cc1cc(=O)[nH]c(SCC(=O)Nc2c(C)n(C)n(-c3ccccc3)c2=O)n1	0.0	u	x	1.9%	x	12%	0.4%
CC(OC(=O)C1CCN(c2ccc(C(F)(F)F)cn2)CC1)C(=O)c1ccccc1 (stereo unspecified)	-2.2	10%	x	4.4%	x	-8%	-8.8%
N#C/C(=C\c1ccc(Cl)cc1)c1n[nH]c(Cn2cncn2)n1	-3.1	-38%[inhibitor]	-0.4	-2.5%	15%	-1%	-30%
CCOC(=O)c1ccc(NC(=O)CSc2nc3cccnc3n2C)cc1	-5.5	-46%[inhibitor]	5.1	-0.3%	5%	-11%	-2.4%

Compound profiles, as listed above. Screens in order: D2 ag, gsp agonist, Menin-MLL FL inh, PINK1 expr mod, Sfp PPTase inh, gsp antag, ClpP mod
Cc1nn(C(C)(C)C)c(OC(=O)c2ccc(Br)o2)c1Sc1ccccc1 across the screens: -0.8, -14%, 0.5, 5.3%[38.3 µM], -7%, 0%, -0.9%
CC(OC(=O)C1CCN(c2ccc(C(F)(F)F)cn2)CC1)C(=O)c1ccccc1 (stereo unspecified) across the screens: -2.2, 10%, x, 4.4%, x, -8%, -8.8%
